gsp ag: gsp mutant agonism; Potency, µM (titrated, usually from 76.9 µM), for inactives: at the highest dose activation (cAMP increase), usual class: activators; AID 624287; actives 0.13% (n = 340,000); gsp mutant cells, cAMP HTRF, 30 min; control for the full effect not named in the record; active = well fitted activation curve with a large enough effect; inconclusive = small, poorly fitted or top-dose-only effect, or another doubt; inactive = no such curve, though single readings can be large or run the other way; cell line not stated here;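 further: phosphodiesterase inhibitor Ro 20-1724 added with compounds to block cAMP breakdown; potency means the concentration at half of the fitted maximal effect; nearly all actives have a fitted effect of over 60% in size; about a fifth of the inactives were tested at one dose only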
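Cells in DMEM/10% FBS with G418 were pretreated with compounds in DMSO plus […] (300 uM stock) for 30 min at 37C. cAMP was measured by HTRF (cAMP-d2 plus anti-cAMP antibody-K) after 30 min at room temperature.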
D2 ag: activates the human D2 dopamine receptor. P14416. DiscoveRx PathHunter D2 beta-arrestin, luminescence, 90 min; 100% = 57 uM dopamine signal. activation, % (no concentration beside the values). actives 0.084% (n = 360,000). AID 624465; in the data active = activation above about 40%; inconclusive = about 15% to 40%; inactive = below about 15%; further: compound concentration not given in the record; the text of the record calls up to 30% inactive
Target sequence (P14416 whole entry, looked up): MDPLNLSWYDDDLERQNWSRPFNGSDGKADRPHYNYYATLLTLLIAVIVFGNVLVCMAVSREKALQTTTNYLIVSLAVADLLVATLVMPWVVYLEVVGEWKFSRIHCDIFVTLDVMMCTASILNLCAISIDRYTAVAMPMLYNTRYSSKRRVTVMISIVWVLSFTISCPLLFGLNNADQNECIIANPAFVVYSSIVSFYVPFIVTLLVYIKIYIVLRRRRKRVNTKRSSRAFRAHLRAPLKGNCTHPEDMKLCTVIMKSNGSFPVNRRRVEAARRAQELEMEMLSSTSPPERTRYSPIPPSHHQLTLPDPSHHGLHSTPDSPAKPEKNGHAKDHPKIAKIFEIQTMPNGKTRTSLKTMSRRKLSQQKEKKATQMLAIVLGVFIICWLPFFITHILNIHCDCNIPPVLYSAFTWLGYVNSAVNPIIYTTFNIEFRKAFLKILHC
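DiscoveRx PathHunter D2 beta-arrestin cells (2,100/well) attached overnight, then compound-stimulated 90 min at 37 C in HBSS/10 mM HEPES/0.1% Tween-20 buffer; beta-galactosidase complementation read by luminescence after 1 h at ambient temperature. Dopamine 57 uM final (EC100) as control.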
D2 PAM: positive allosteric modulators of human D2 dopamine receptor; actives 0.23% (n = 360,000); potentiation, % (concentration not given with the values); AID 624464; DiscoveRx D2 beta-arrestin cells, luminescence, 90 min; 100% = 57 uM dopamine signal; active = potentiation of 50% or more; inconclusive = 30% to 50%; inactive = 30% or less;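 further: compound concentration not given in the record; tested on top of an EC20 dose of dopamine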
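PathHunter D2 cells, attached overnight at 37 deg C, received compound in DMSO plus dopamine at EC20 (50 nM final) for 90 min at 37 deg C. Beta-arrestin recruitment was read as luminescence after 1 h with detection reagent at ambient temperature.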
gsp antag: gsp mutant antagonism. gsp-mutant cells, cAMP HTRF, 30 min; control for the full effect not named in the record. Potency, µM (top dose mostly 76.9 µM), without a hit: at the highest dose activity change, negative = inhibition, hits mostly inhibitors. actives 0.4% (n = 340,000). AID 624288; active = falling curve of any shape with a large fitted effect; inconclusive = falling curve, mostly with a smaller effect; inactive = flat or rising curve; cell line not stated here;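 further: intracellular cAMP measured with PDE inhibitor Ro 20-1724 present during compound exposure; potency means the concentration at half of the fitted maximal effect; on the % scale 0 is the no-effect control and ±100 the full control effect; nearly all actives have a fitted effect of over 65% in size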
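G418-selected cells were plated in DMEM/10% FBS for 16-24 h at 37C, then treated with compounds plus the PDE inhibitor […] (300 uM solution added) for 30 min at 37C. Intracellular cAMP was measured by HTRF after 30 min lysis at room temperature.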
Six1-Eya2 inh: blocks human Six1 binding to Eya2; actives 0.56% (n = 360,000); activity change, % (concentration not given with the values); Q15475+O00167; AlphaScreen GST-Six1/His-Eya2 binding, biochemical; active compounds read low; control for the full effect not named in the record; in the data active = activity change below about -65%; inconclusive = about -30% to -65%; inactive = above about -30%; further: on the % scale 0 is the no-effect control and ±100 the full control effect
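AlphaScreen with GST-Six1 and His-Eya2 (5X mix: 250 nM and 500 nM), glutathione donor and nickel acceptor beads; buffer 50 mM Tris pH 8.0, 300 mM NaCl, 1 mM TCEP; 1 h at 37 C in the dark.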
CtBP-E1A blk: CtBP/E1A binding inhibition; AlphaScreen GST-E1A/His-CtBP binding, 1536-well; active compounds read low; control for the full effect not named in the record; activity change, % (concentration not given with the values); actives 0.49% (n = 340,000); AID 651724; in the data active means activity change below about -65%; inconclusive means about -30% to -65%; inactive means above about -30%; further: on the % scale 0 is the no-effect control and ±100 the full control effect
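AlphaScreen with 125 nM GST-E1A and 125 nM His-CtBP (5X stocks) in Tris pH 8.0, 300 mM NaCl, BSA, Tween 20, TCEP. Compounds preincubated 2 h at 37 deg C, then glutathione donor/nickel acceptor beads added for 1 h at 37 deg C in dark.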
* = called active by the depositor; ? = inconclusive; . = no result given; [ ] = dose if it differs, or a comment.

1	O=C(Nc1ccc2c(c1)OCCO2)C(=O)NC1CC1
2	Cc1ccc(S(=O)(=O)N[C@@H](CC(C)C)C(=O)N2CCC(C(=O)N[C@H](C(=O)O)C(C)C)CC2)cc1
3	O=C(COC(=O)c1cccc(S(=O)(=O)NCc2ccccc2)c1)c1ccccc1
4	Cc1nc(Nc2ccccc2)sc1-c1ccccc1
5	CSc1nc2[nH]c3c(c2c2ncnn12)CCCC3
6	OC(c1ccc(F)c(F)c1)c1nc(-c2ccc(Cl)cc2)cs1 (stereo not drawn)
assay / entry	1	2	3	4	5	6
D2 PAM	-3	9	2	7	-13	0
Six1-Eya2 inh	2	8	3	-8	?	5
gsp antag	5%	4%	-3%	-13%	-12%	.
D2 ag	2.2	-1.3	-0.2	3.8	-2.0	-1.7
CtBP-E1A blk	6	-1	-2	-8	?	2
gsp ag	-15%	.	7%[15.4 µM]	3%	?	.

7	O=S(=O)(Nc1nc2ccccc2nc1Cl)c1cccc(C(F)(F)F)c1
8	CSc1ccc(Cl)c(C(=O)OCC(=O)N2CC(C)OC(C)C2)c1 (stereo not drawn)
9	CCCN1CCN(C2CCCCC2NS(=O)(=O)c2ccccc2)CC1 (stereo not drawn)
10	CCCc1nc2c3ccccc3ccn2c1Cc1ccc(C)cc1
11	Cc1c(C(=O)N2CCCC2)oc2c1-c1nn(CC(=O)NCCCN3CCCCC3)cc1CC2
12	CCc1nc(NC2CCCCC2)c(C#N)c2c1COC(C)(C)C2
assay / entry	7	8	9	10	11	12
D2 PAM	5	3	-18	-10	-30	-32
Six1-Eya2 inh	0	-1	9	-11	1	0
gsp antag	.	0%	10%	.	14%	-10%
D2 ag	-3.3	1.4	-4.1	-6.2	1.4	-2.1
CtBP-E1A blk	0	1	22	0	-7	-7
gsp ag	-8%[15.4 µM]	0%	9%	.	-2%	22%

13	CCOc1cc(C2C3=C(CCCC3=O)Nc3ccc4ncccc4c32)ccc1O (stereo not drawn)
14	CC1CCC2(CC1)NC(=O)N(CC(=O)c1ccc(CNC(=O)C(C)(C)C)s1)C2=O (stereo not drawn)
15	CSc1nnc2c(n1)OC(C)N(C(=O)c1ccccc1)c1ccccc1-2 (stereo not drawn)
16	O=C(NCC1CCCO1)c1onc(CSc2ccccc2)c1C(=O)O (stereo not drawn)
17	CC(C)C(Nc1ccc(S(=O)(=O)N2CCOCC2)cc1[N+](=O)[O-])C(=O)O (stereo not drawn)
18	COc1ccc(C=C2SC(=S)NC2=O)c(OC)c1OC
assay / entry	13	14	15	16	17	18
D2 PAM	-4	-3	5	-9	-8	-2
Six1-Eya2 inh	-4	7	7	4	-8	-8
gsp antag	4%	0%	-21%	11%	0%	-11%
D2 ag	-0.1	12	-0.6	-1.1	-5.6	-1.9
CtBP-E1A blk	-5	8	-1	7	13	-11
gsp ag	7%[15.4 µM]	-5%	24%	.	4%[15.4 µM]	25%

19	O=C(CCSCCC(=O)NCc1ccccc1)NCc1ccccc1
20	CC(C)(CO)NCC(O)Cn1cc(C=O)c2ccccc21 (stereo not drawn)
21	CCN1CCN(CC(=O)Nc2ccc(OC(F)(F)F)cc2)CC1
22	CC1=C(C(=O)Nc2ccccc2C(=O)NCc2ccccc2)SCCO1
23	CCN(CC)CC#CCC(O)(c1ccccc1)C1CCCCC1 (stereo not drawn)
24	O=C(O)c1cccc2c1C(=O)c1ccc(N3CCN(Cc4ccc5c(c4)OCO5)CC3)cc1S2(=O)=O
assay / entry	19	20	21	22	23	24
D2 PAM	10	1	-6	2	-14	1
Six1-Eya2 inh	5	11	2	-5	-1	-18
gsp antag	5%	-3%	17%	-15%	.	.
D2 ag	-1.8	0.6	-1.3	-4.2	0.5	-9.7
CtBP-E1A blk	10	0	1	-3	-20	?
gsp ag	-1%	2%[15.4 µM]	-12%[15.4 µM]	-76%[inhibitor]	-2%[15.4 µM]	-38%[inhibitor]

One compound at a time, as listed above.
O=C(CCSCCC(=O)NCc1ccccc1)NCc1ccccc1 as listed: D2 PAM: 10; Six1-Eya2 inh: 5; gsp antag: 5%; D2 ag: -1.8; CtBP-E1A blk: 10; gsp ag: -1%
CC(C)(CO)NCC(O)Cn1cc(C=O)c2ccccc21 (stereo not drawn) as listed: D2 PAM: 1; Six1-Eya2 inh: 11; gsp antag: -3%; D2 ag: 0.6; CtBP-E1A blk: 0; gsp ag: 2%[15.4 µM]

Carrying on.
25	NC(=O)c1nsc(C(=O)N(CC(=O)NC2CCCC2)c2cccc(C(F)(F)F)c2)c1N
26	COc1ccc(CCNc2oc(Cc3ccccc3)nc2C#N)cc1OC
27	COc1cccc(C2Nc3ccccc3C(=O)N2c2ccc(F)cc2)c1O (stereo not drawn)
28	Cc1cc(C)cc(-n2nnnc2-c2cn(C)nc2C(F)(F)F)c1
29	O=C(NC1CCCC1)c1ccc(Br)c(S(=O)(=O)N2CCCCC2)c1
30	Cc1ccc(NC(=O)CSCc2cc(=O)n3ccsc3n2)c(C)c1
assay / entry	25	26	27	28	29	30
D2 PAM	5	10	-10	6	0	-9
Six1-Eya2 inh	1	-10	1	13	3	3
gsp antag	-4%	-35%	-6%	0%	6%	0%
D2 ag	-2.6	-4.0	7.1	-3.2	3.3	4.2
CtBP-E1A blk	-6	-1	-3	4	7	-1
gsp ag	-5%[15.4 µM]	-17%	-25%	2%	-56%[inhibitor]	?

31	CCOC(=O)c1nc(-c2ccc(OC)c(OC)c2)cnc1C#N
32	Cc1cccc(OCc2nnc(NC(=O)c3cccs3)s2)c1
33	Cc1nc([N+](=O)[O-])c(C(=O)OCc2ccccc2F)n1C
34	COC(=O)c1cccc(NC(=O)c2cnccn2)c1
35	COc1cccc(/C=C/c2nc3c(cnn3-c3ccccc3)c(=O)[nH]2)c1
36	COc1ccc2c(c1)CCCO[C@]21O[C@H](CCO)C[C@H](O)[C@H]1O
assay / entry	31	32	33	34	35	36
D2 PAM	3	-1	-6	-3	-12	0
Six1-Eya2 inh	0	2	2	-15	4	6
gsp antag	4%	7%	-5%	3%	3%	.
D2 ag	-1.0	-3.2	-6.8	-0.6	-3.2	-3.2
CtBP-E1A blk	-4	-8	5	3	.	0
gsp ag	-6%[15.4 µM]	-11%	0%[15.4 µM]	11%[15.4 µM]	?	-64%[inhibitor]

37	O=C(Nc1ccc(S(=O)(=O)N2CCCC2)cc1)c1cccc(OC(F)F)c1
38	COc1ccc2c(c1)N(C(=O)CN1C(=O)C3CCCCC3C1=O)C(C)(C)C=C2C (stereo not drawn)
39	CCOC(=O)N1CCN(C(=O)COc2cccc3c2CCN(Cc2ccccc2C)C3=O)CC1
40	FC(F)(F)c1ccccc1-c1ccc2nncn2c1
41	CN(C)CCn1c2ccccc2c2nc3ccc([N+](=O)[O-])cc3cc21
42	Cc1cccc(NC(=O)C2CCN(c3ncnc4c3nc3n4CCCCC3)CC2)n1
assay / entry	37	38	39	40	41	42
D2 PAM	0	1	-9	-6	-8	-4
Six1-Eya2 inh	0	-3	-25	2	-3	-3
gsp antag	0%	-14%	-5%	.	7%	-6%
D2 ag	1.0	-0.5	-1.3	-5.0	2.4	8.7
CtBP-E1A blk	-18	-1	-9	1	-2	-5
gsp ag	29%	-9%	25%	.	18%[15.4 µM]	37%

43	Nc1cc(=O)[nH]c(SCC(=O)N2CCCCC2)n1
44	O=C(Nc1cc(Cl)ccc1Cl)N1CCCC1
45	Cc1ccc(NC(=O)c2cnn(-c3ccccc3)c2NC(=O)c2ccco2)cc1
46	CCc1ccccc1N(CC(=O)N1CCCC1)S(C)(=O)=O
47	COc1ccc(C)cc1S(=O)(=O)N(C)CC(=O)N1CCCCC1
48	Cc1c(NS(=O)(=O)c2ccc(Cl)c(C(=O)OC(C)C(=O)NCc3ccco3)c2)c(=O)n(-c2ccccc2)n1C (stereo not drawn)
assay / entry	43	44	45	46	47	48
D2 PAM	1	-3	11	?	-13	-14
Six1-Eya2 inh	1	-2	7	0	0	-3
gsp antag	-4%	13%	-18%	0%	3%	.
D2 ag	-1.3	-5.6	-1.5	0.1	1.6	-1.1
CtBP-E1A blk	14	16	-5	.	37	29
gsp ag	-1%[15.4 µM]	18%	2%	8%	-70%[inhibitor]	-3%[15.4 µM]

49	C[C@H](NC(=O)c1ccc(C(C)(C)C)cc1)C(=O)N1CCC2(CC1)NCCc1[nH]cnc12
50	COc1ccc(/C=C/C(=O)NC2=NCCS2)cc1OC
51	COc1ccc(-c2n[nH]c(=S)n2-c2cc(OC)ccc2OC)cc1
52	CC(C)(C)c1nnc2sc(SCC(=O)c3cccs3)nn2c1=O
53	CCOC(=O)C(=O)N(C)c1c(CC)nc2c(OCc3ccccc3C)cccn12
54	CC1(c2ccccc2Cl)NC(=O)N(CC(=O)NCc2ccco2)C1=O (stereo not drawn)
assay / entry	49	50	51	52	53	54
D2 PAM	-15	2	-7	-22	-5	-7
Six1-Eya2 inh	-2	3	-2	-6	1	3
gsp antag	6%	-6%	-10%	-9%	.	9%
D2 ag	-11	-1.8	-1.1	-3.1	-4.1	-12
CtBP-E1A blk	-8	0	4	-4	0	-2
gsp ag	?	21%	-5%[15.4 µM]	1%	.	12%[15.4 µM]

55	CCn1ccnc1CN1CCN(CC(C)C)C(CCO)C1 (stereo not drawn)
56	CN1c2ccc([N+](=O)[O-])cc2N(C)C1(C)c1ccccc1 (stereo not drawn)
57	Cc1ccc(-n2nnnc2SC(C)C(=O)NCC(=O)Nc2ccc(F)c(F)c2F)c(C)c1 (stereo not drawn)
58	CCOc1cc(-c2nc3cc(C)ccn3c2NCC2CCCO2)ccc1O (stereo not drawn)
59	COc1cccc2[nH]c(C(=O)NC(C)c3ccccc3)cc12 (stereo not drawn)
60	CC(C)N(Cc1ccccc1)C(=O)COC(=O)c1ccc2ncsc2c1
assay / entry	55	56	57	58	59	60
D2 PAM	-4	-5	-10	-2	-16	-4
Six1-Eya2 inh	-5	-76*	-9	-1	-1	0
gsp antag	24%	-19%	-23%	-21%	3%	2%
D2 ag	-3.1	-3.0	2.4	-1.0	2.0	-2.5
CtBP-E1A blk	6	-80*	-12	4	.	10
gsp ag	4%[15.4 µM]	-9%	26%	?	12%	-3%

61	COCCNc1oc(Cc2cccc3ccccc23)nc1C#N
62	O=C(/C=C/c1ccccc1)NC(=S)NNC(=O)Cc1cccs1
63	CC(C)(C)c1ccc(CC(=O)N2CCC2(C)C(=O)NS(=O)(=O)c2ccccc2)cc1 (stereo not drawn)
64	CSCCC(NC(=O)/C(=C\c1ccco1)NC(=O)c1ccco1)C(=O)O (stereo not drawn)
assay / entry	61	62	63	64
D2 PAM	7	-9	-3	-3
Six1-Eya2 inh	3	-12	15	7
gsp antag	-3%	-6%	.	-4%
D2 ag	1.5	-0.8	-4.0	-4.6
CtBP-E1A blk	.	-15	1	7
gsp ag	-130%[inhibitor]	-1%	.	6%

Assay outcomes deposited in PubChem by National Center for Advancing Translational Sciences (NCATS).
